Screening results from PubChem.
TRPV1 potentiator: human TRPV1 potentiation. potentiation, % at 8.33 µM. TRPV1-expressing cells, Fluo-8 calcium influx, capsaicin EC20 potentiation; host cell line not named in the record; control for the full effect not named in the record. 0.02% of 320,000 active; active means potentiation above 80%; inconclusive means 30% to 80%; inactive means below 30%; also: 0% is about no effect
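TRPV1-expressing cells were cultured overnight at 35.5C and loaded with Fluo-8 calcium dye for 40 to 90 min at room temperature. After a 10 s baseline, compound was added and calcium influx was read kinetically for 3 min (ex 480/em 520 nm).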
TRPML1 ag: human mucolipin-1 channel agonism. Q9GZU1. TRPML1-expressing cells, Ca2+ dye fluorescence, FDSS; host cell line not named in the record; reference of the full effect not given here. activation, % (no concentration beside the values). 0.12% of 410,000 active. AID 624414; in the data active = activation above about 50%; inconclusive = about 30% to 50%; inactive = below about 30%; also: 0% is about no effect; the text of the record puts the active cut at 80%
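TRPML1-DL cells, Tet-induced overnight (~16 h, 37 degrees C), loaded 45-90 min at room temperature with Ca8 no-wash calcium dye plus quencher. FDSS fluorescence: 10 s baseline, compound pin-transfer, 110 s agonist read, then EC80 54-4 (4uM final) and 110 s antagonist read.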
TRPML1 blocker: blocks the human TRPML1 channel. Q9GZU1. TRPML1-inducible cells, Ca2+ dye fluorescence, FDSS; active compounds read low; inhibition of EC80 agonist-evoked calcium signal. activity change, negative = inhibition, % (test concentration not listed). 0.02% of 390,000 active. AID 624415; in the data active means activity change below about -50%; inconclusive means about -30% to -50%; inactive means above about -30%;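 also: stimulus is agonist 54-4 at its EC80 concentration; % is scaled to controls: 0 for no effect and ±100 for the full control effect; compound concentration not given in the record; the text of the record puts the active cut at -80%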
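Calcium fluorescence in TRPML1-DL cells induced overnight with Tet: a 110 s read after compound pin addition, then a 110 s antagonist read after challenge with 54-4 at 4 uM final (EC80).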
CtBP-E1A blk: inhibitors of CtBP/E1A interaction; AlphaScreen GST-E1A/His-CtBP binding, 1536-well; active compounds read low; control for the full effect not named in the record; activity change, % (concentration not given with the values); 0.49% of 340,000 active; AID 651724; in the data active means activity change below about -65%; inconclusive means about -30% to -65%; inactive means above about -30%; also: % is scaled to controls: 0 for no effect and ±100 for the full control effect
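Steps: dispense buffer (Tris pH 8.0, NaCl 300 mM, TCEP 1 mM, BSA, Tween 20); add 5X protein mix (GST-E1A, His-CtBP, 125 nM each); pin 23 nL compound; 2 h at 37 °C, dark; add 5X beads (50 ug/mL); 1 h; read.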
D2 PAM: positive allosteric modulators of human D2 dopamine receptor; P14416; DiscoveRx D2 beta-arrestin cells, luminescence, 90 min; 100% = 57 uM dopamine signal; potentiation, % (concentration not given with the values); 0.23% of 360,000 active; active = potentiation of 50% or more; inconclusive = 30% to 50%; inactive = 30% or less;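 also: compound concentration not given in the record; tested on top of an EC20 dose of dopamine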
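D2 cells co-treated with compound plus 50 nM dopamine (EC20) for 90 min at 37 deg C to detect potentiation. Beta-arrestin recruitment was read as enzyme-fragment luminescence after 1 h at ambient temperature. Full response was set by 57 uM dopamine.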
Six1-Eya2 blk: Six1/Eya2 interaction inhibition; Q15475+O00167; AlphaScreen GST-Six1/His-Eya2 binding, biochemical; active compounds read low; control for the full effect not named in the record; activity change, % (concentration not given with the values); 0.56% of 360,000 active; AID 651725; in the data active = activity change below about -65%; inconclusive = about -30% to -65%; inactive = above about -30%; also: % is scaled to controls: 0 for no effect and ±100 for the full control effect
Target sequence (O00167 whole entry, looked up): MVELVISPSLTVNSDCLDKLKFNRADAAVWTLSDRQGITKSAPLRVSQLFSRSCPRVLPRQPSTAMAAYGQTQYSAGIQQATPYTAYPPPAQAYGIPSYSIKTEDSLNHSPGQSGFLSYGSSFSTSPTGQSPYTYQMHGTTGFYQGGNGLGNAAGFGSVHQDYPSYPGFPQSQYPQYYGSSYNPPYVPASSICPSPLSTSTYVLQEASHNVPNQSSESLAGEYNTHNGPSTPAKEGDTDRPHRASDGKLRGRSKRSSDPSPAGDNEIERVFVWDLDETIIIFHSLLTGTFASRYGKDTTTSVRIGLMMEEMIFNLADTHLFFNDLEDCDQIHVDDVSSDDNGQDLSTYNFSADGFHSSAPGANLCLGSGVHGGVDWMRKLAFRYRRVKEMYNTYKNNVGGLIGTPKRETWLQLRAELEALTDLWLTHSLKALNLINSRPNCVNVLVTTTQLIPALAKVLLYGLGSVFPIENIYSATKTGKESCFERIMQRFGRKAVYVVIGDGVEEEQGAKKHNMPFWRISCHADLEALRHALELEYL
Target sequence (Q15475 whole entry, looked up): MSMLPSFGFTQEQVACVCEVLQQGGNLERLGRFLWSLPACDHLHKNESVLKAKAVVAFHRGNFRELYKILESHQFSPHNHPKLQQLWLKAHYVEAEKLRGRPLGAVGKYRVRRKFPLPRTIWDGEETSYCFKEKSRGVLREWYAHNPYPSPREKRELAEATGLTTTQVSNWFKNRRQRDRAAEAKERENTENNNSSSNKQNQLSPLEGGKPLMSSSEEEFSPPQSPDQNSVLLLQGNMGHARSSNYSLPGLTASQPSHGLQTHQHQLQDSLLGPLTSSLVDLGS
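GST-Six1 + His-Eya2 (5X stock: 250/500 nM); Tris pH 8.0, 300 mM NaCl, 0.05% BSA, 0.02% Tween 20; GSH donor/Ni acceptor beads; 1 h 37 °C dark; AlphaScreen readout.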
* hit, by the source's call; u = inconclusive; x = no result given; & = joins results of further samples.

1	Cc1cc(NC(=O)c2ccccc2)nc2c1c(=O)oc1ccccc12
2	CC(NC(=O)c1cccc(S(=O)(=O)N2CCCCCC2)c1)c1ccccc1 (stereo not given)
3	COCCNC(=O)c1ccccc1NC(=O)COc1ccccc1
4	Cc1ccc(NC(=O)CN2CCN(c3ccccn3)CC2)c(Cl)c1
5	CCOC(=O)C(=O)Nc1cccc(C(=O)OCC)c1
6	O=C(Nc1ccccc1Oc1ccccc1)[C@@H]1O[C@H](CO)[C@H](O)[C@H](O)[C@H]1O

assay / compound	1	2	3	4	5	6
TRPV1 potentiator	6	-2	-3	-3	-7	x
TRPML1 ag	-0.4	2.9	-1.0	1.2	-0.3	0.1
TRPML1 blocker	18	26	13	36	-17	22
CtBP-E1A blk	-18	-12	7	3	-4	0
D2 PAM	-8	-1	6	-5	-16	-36
Six1-Eya2 blk	-3	6	2	-1	2	7

7	Cc1ccc(C2OC(=O)c3ccccc32)cc1 (stereo not given)
8	CN(C1CCS(=O)(=O)C1)S(=O)(=O)c1cccs1 (stereo not given)
9	CCOC(=O)Nc1ccc2c(c1)OCO2
10	CCN(CC)C(=O)Oc1cc(=O)n2c3c(cccc13)CCC2
11	COC(=O)C1=C(C)OC(N)=C(C#N)C1c1ccccc1F (stereo not given)
12	CN/C(=C/[N+](=O)[O-])NCCSCc1csc(CN(C)C)n1

assay / compound	7	8	9	10	11	12
TRPV1 potentiator	-19	1	6	2	-4	x
TRPML1 ag	-0.4	0.4	1.7	-0.6	-0.7	-0.6
TRPML1 blocker	9	10	28	3	4	0
CtBP-E1A blk	3	9	7	4	3	8
D2 PAM	-4	-14	-3	5	-14	4
Six1-Eya2 blk	2	-2	-2	6	3	-1

13	Cc1ccc(S(=O)(=O)N2CCN(C(=O)CC(C)n3nc(C)c(Cl)c3C)CC2)cc1C (stereo not given)
14	O=C(O)c1ccc(-n2c(-c3cc(C4CC4)[nH]n3)n[nH]c2=S)cc1
15	C=CCC[C@@H](Cc1ccc(F)cc1)C(=O)OC[C@@H]1CCCN1C(=O)[C@H](CC=C)CC(=O)N[C@H](CO)Cc1ccccc1
16	O=C(CCc1ccccc1)NNc1ccc(F)cc1
17	CS(=O)(=O)c1ncc(Cl)c(C(=O)Nc2ccc(OC(F)F)cc2)n1
18	C[C@H](CO)N1C[C@H](C)[C@@H](CN(C)C(=O)Nc2ccc(C(F)(F)F)cc2)Oc2ccc(NC(=O)CCC(F)(F)F)cc2C1=O

assay / compound	13	14	15	16	17	18
TRPV1 potentiator	-11	-1	x	-8	-4	x
TRPML1 ag	-0.5	0.8	-0.6	-0.1	6.8	-0.3
TRPML1 blocker	-2	11	-21	3	-5	-3
CtBP-E1A blk	-15	4	-1	3	0	-4
D2 PAM	-5	-7	0	-2	-13	-4
Six1-Eya2 blk	-8	1	-5	7	2	1

19	Nc1c(Cl)ncnc1NCc1ccccc1
20	COc1ccc(-c2nnc(SCC(=O)NCCc3ccccc3)o2)cc1
21	C=CCOc1c(Cl)cc(C2NC(=O)NC(C)=C2C(=O)OC)cc1Cl (stereo not given)
22	Cc1ccc(S(=O)(=O)N2CCC(C(=O)NCCC3=CCCCC3)CC2)cc1C
23	CCOC(=O)c1c(NC(=O)c2ccoc2C)sc(C(=O)N(C)C)c1C
24	O=C1NC[C@@H](CCCCN2CCN(CCc3ccc(O)cc3)C(=O)C2=O)N(CC2CCCCC2)C1=O

assay / compound	19	20	21	22	23	24
TRPV1 potentiator	u	-9	10	-14	6	x
TRPML1 ag	-0.1	-0.5	0.5	1.6	1.6	-0.2
TRPML1 blocker	30	-3	0	-2	-2	x
CtBP-E1A blk	0	25	7	-11	-1	0
D2 PAM	-2	-12	15	15	0	x
Six1-Eya2 blk	0	20	0	1	-2	4

Ordered by SMILES length (highest first): part of the list above
24	O=C1NC[C@@H](CCCCN2CCN(CCc3ccc(O)cc3)C(=O)C2=O)N(CC2CCCCC2)C1=O
22	Cc1ccc(S(=O)(=O)N2CCC(C(=O)NCCC3=CCCCC3)CC2)cc1C
19	Nc1c(Cl)ncnc1NCc1ccccc1

assay / compound	24	22	19
TRPV1 potentiator	x	-14	u
TRPML1 ag	-0.2	1.6	-0.1
TRPML1 blocker	x	-2	30
CtBP-E1A blk	0	-11	0
D2 PAM	x	15	-2
Six1-Eya2 blk	4	1	0

Next section
25	OCCNc1nc(-c2ccccc2)nc2c1oc1ccccc12
26	CCCn1ncc(CN2CCC(n3nccc3NC(=O)CCc3ccccc3)CC2)c1C
27	O=C(NCc1cccs1)c1ccc(CS(=O)Cc2ccccc2Cl)o1 (stereo not given)
28	CCCN(C(=O)COC(=O)c1cc(CC)c(C)s1)c1c(N)n(Cc2ccccc2)c(=O)[nH]c1=O
29	CN(c1ccccc1)S(=O)(=O)c1cccc(NC(=O)c2cccc(C#N)c2)c1
30	CSc1ccccc1C(=O)Nc1cccc(N(C)S(C)(=O)=O)c1

assay / compound	25	26	27	28	29	30
TRPV1 potentiator	-4	u	-2	11	9	-3
TRPML1 ag	0.9	0.3	-0.4	2.0	1.6	-0.6
TRPML1 blocker	-5	-4	-14	2	-12	3
CtBP-E1A blk	x	0	-8	0	-18	9
D2 PAM	-1	-13	0	-18	8	-3
Six1-Eya2 blk	0	4	2	0	-2	-1

From no. 27 up to 28, copied from above:
27	O=C(NCc1cccs1)c1ccc(CS(=O)Cc2ccccc2Cl)o1 (stereo not given)
28	CCCN(C(=O)COC(=O)c1cc(CC)c(C)s1)c1c(N)n(Cc2ccccc2)c(=O)[nH]c1=O

assay / compound	27	28
TRPV1 potentiator	-2	11
TRPML1 ag	-0.4	2.0
TRPML1 blocker	-14	2
CtBP-E1A blk	-8	0
D2 PAM	0	-18
Six1-Eya2 blk	2	0

(cont.)
31	CCCc1cc(=O)n2[nH]c(C)nc2n1
32	Cc1ccccc1Cn1cnc2c(oc3ccccc32)c1=O
33	Cc1ccccc1OCC(=O)OCC(=O)Nc1cc(S(C)(=O)=O)ccc1Cl
34	O=C1CCC(C(=O)N2CCN(c3ccccc3)CC2)CN1Cc1ccc(Cl)cc1 (stereo not given)
35	Cc1ccc(OCc2nnc(SCC(=O)Nc3cc(C)on3)n2C)cc1
36	Cc1ccc(S(=O)(=O)NC(C(=O)Oc2cc3oc(=O)cc(C)c3cc2Cl)C(C)C)cc1 (stereo not given)

assay / compound	31	32	33	34	35	36
TRPV1 potentiator	13	23	u	x	8	-3
TRPML1 ag	-1.0	-1.0&-0.9	1.2	-1.0	0.1	1.3
TRPML1 blocker	0	-9&3	1	-8	12	0
CtBP-E1A blk	2	0	7	1	3	-6
D2 PAM	-11	4	-1	-12	-2	-4
Six1-Eya2 blk	0	-18	3	1	6	8

37	CC(C)(C)CC(=O)NC(=S)NCc1ccco1
38	CCCc1cc(=O)oc2c(CN3CCN(C)CC3)c(O)ccc12
39	CC(C)(C)C(=O)C1=C(O)C(=O)N(Cc2ccccc2)C1c1ccccc1Cl (stereo not given)
40	CC(=O)c1cc(NC(=O)c2ccc([N+](=O)[O-])cc2)c(=O)oc1C
41	CC1CC(C)CN(CCCSc2ccccc2)C1 (stereo not given)
42	O=C(Cc1ccccc1)NC(=S)Nc1ccc2oc(-c3ccccc3F)nc2c1

assay / compound	37	38	39	40	41	42
TRPV1 potentiator	-3	-10	-2	4	3	14
TRPML1 ag	4.5	-0.6	x	-1.0	-0.8	-0.4
TRPML1 blocker	-10	5	x	1	-2	-14
CtBP-E1A blk	7	3	x	5	6	2
D2 PAM	6	-3	9	-6	-38	-39
Six1-Eya2 blk	-3	-1	-2	-1	13	23

43	O=C(COC(=O)c1cc(S(=O)(=O)N2CCOCC2)ccc1Cl)Nc1ccc2c(c1)OCO2
44	Cc1ccc(Nc2nc(NCc3ccco3)c3ccccc3n2)cc1
45	CCOC(=O)c1c(NC(=O)c2cccc([N+](=O)[O-])c2C(=O)O)sc2c1CCCC2
46	C[C@@H]1CCCCO[C@@H](CN(C)CC2CCCCC2)[C@@H](C)CN([C@H](C)CO)C(=O)c2cc(NS(=O)(=O)c3ccc(Cl)cc3)ccc2O1
47	Cc1nnc2sc(SCC(=O)Nc3nccs3)nn2c1=O
48	O=C(CSc1nc2ccccc2n1-c1ccccc1)NCC1CCCO1 (stereo not given)

assay / compound	43	44	45	46	47	48
TRPV1 potentiator	-1	-29	2	x	2	-9
TRPML1 ag	2.9	6.6	-0.4	-0.4	-0.5	-0.5
TRPML1 blocker	28	2	-8	4	16	22
CtBP-E1A blk	2	-1	0	4	-3	-9
D2 PAM	11	-21	4	-7	1	4
Six1-Eya2 blk	-2	0	0	6	u	7

49	NS(=O)(=O)c1ccc(NC(=S)Nc2cc(Cl)c(Cl)cc2Cl)cc1
50	CC(C)=CC(=O)OCC(=O)NC1CCCc2ccccc21 (stereo not given)
51	O=c1ccc(-c2nc3cc(Cl)ccc3n2Cc2ccccc2)c[nH]1
52	Cn1c(SCC(=O)Nc2ccc3c(c2)OCCO3)nnc1C1CC1
53	CC12CCC(O)CC1=CCC1C2CCC2(C)C3=NN=CC3CC12 (stereo not given)
54	Cc1onc(-c2ccccc2)c1C(=O)NCCc1ccc(S(N)(=O)=O)cc1

assay / compound	49	50	51	52	53	54
TRPV1 potentiator	-6	-2	-1	-27	x	-7
TRPML1 ag	2.4	-1.6	1.4	-0.5	2.1	-0.3
TRPML1 blocker	9	15	12	20	15	23
CtBP-E1A blk	3	1	-2	7	2	-1
D2 PAM	-18	-6	-5	-1	9	-1
Six1-Eya2 blk	1	11	2	-1	-1	2

55	Cc1ccc(NC(=O)C(=O)c2cn(CC(=O)N3CCCCC3)c3ccccc23)cc1
56	Cc1cccc(CS(=O)(=O)Cc2ccc(C(=O)NCc3cccnc3)o2)c1
57	COC[C@H]1CCCN1c1ccc2c(c1)O[C@H](COCc1ccccc1)CN([C@@H](C)c1ccccc1)S2(=O)=O
58	O=C(NCCSc1ncc(-c2ccc(F)cc2)[nH]1)c1ccco1
59	Cc1ccc(C)c(CN2C(=O)C3CCCN3c3ccc(C#N)cc32)c1 (stereo not given)

assay / compound	55	56	57	58	59
TRPV1 potentiator	-3	-6	x	-17	-6
TRPML1 ag	0.3	1.3	-0.4	2.1	0.0
TRPML1 blocker	4	11	x	-4	-10
CtBP-E1A blk	-21	2	-4	2	-7
D2 PAM	-5	-1	x	-15	-2
Six1-Eya2 blk	-7	-1	-14	-10	1
